2A StopGo – lowers the luciferase signal of an FMDV 2A StopGo reporter; 1.2% of 410,000 active; AID 1159524; Potency, µM (doses to about 57.9 µM), for inactives: at the highest dose signal change, negative = less light; human cells with a luciferase reporter of 2A StopGo recoding; control for the full effect not named in the record; active = well fitted falling curve with a large enough effect; inconclusive = small, poorly fitted or top-dose-only effect; inactive = no such curve, though single readings can be large or run the other way; tested in HEK293T cells; further: on the % scale 0 is the no-effect control and ±100 the full control effect; nearly all actives have a fitted effect of over 45% in size; luciferase light after 4 h
LASV entry inh – Lassa virus entry inhibition; Lassa virus pseudotype entry inhibition, cell reporter; control for the full effect not named in the record; Potency, µM (top dose mostly 37.9 µM), inactives show top-dose activity change, negative = inhibition, actives largely listed as inhibitors; 1.2% of 300,000 active; AID 540256; active means well fitted inhibition curve with a large enough effect; inconclusive means small, poorly fitted or top-dose-only effect, or effect the other way; inactive means flat fitted curve, though single readings scatter; tested in HEK293 cells; further: on the % scale 0 is the no-effect control and ±100 the full control effect; nearly all actives have a fitted effect of over 50% in size; luciferase read-out
SARS PLP yeast – SARS-CoV PLP inhibition in yeast. Potency, µM (series often up to 32.9 µM), for the others: at the top dose activity, positive = growth rescue. S. cerevisiae expressing SARS-CoV PLpro, growth rescue; control for the full effect not named in the record. 0.19% of 330,000 active. AID 485353; further: 0% is about no effect; nearly all actives have a fitted effect of over 55% in size; growth read by luminescence after 48 h
Cruzain noTriton – blocks cruzain activity in detergent-free assay; P25779; purified cruzain, Z-FR-AMC fluorescence, no detergent; Potency, µM, for inactives: max response, negative = inhibition, actives largely listed as inhibitors; 2.3% of 200,000 active; AID 1476; active means well fitted curve in the direction sought with a large enough effect; inconclusive means small, poorly fitted or top-dose-only effect, or another doubt; inactive means no such curve, though single readings can be large; an effect the other way counts as inactive or inconclusive;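 further: plate controls were enzyme without inhibitor for no effect and buffer without enzyme for full effect; nearly all actives have a fitted effect of over 40% in size; top concentration of the series not given in the record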
Target sequence (P25779 123-467 limits assumed): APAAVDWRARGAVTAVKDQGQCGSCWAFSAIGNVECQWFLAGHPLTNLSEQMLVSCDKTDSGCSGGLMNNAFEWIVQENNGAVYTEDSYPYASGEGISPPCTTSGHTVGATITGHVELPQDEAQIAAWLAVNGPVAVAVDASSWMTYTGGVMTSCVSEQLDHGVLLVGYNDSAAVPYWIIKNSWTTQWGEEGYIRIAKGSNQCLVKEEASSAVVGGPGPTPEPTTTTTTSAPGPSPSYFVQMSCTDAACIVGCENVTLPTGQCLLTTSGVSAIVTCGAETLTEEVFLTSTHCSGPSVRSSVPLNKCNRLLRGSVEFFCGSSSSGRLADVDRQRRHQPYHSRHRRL
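Detergent-free condition (0.00005% Triton X-100) in acetate buffer pH 5.5 with DTT. 1.5 nM enzyme and compound were pre-mixed 15 min, then 2 uM Z-FR-AMC substrate added; reaction progress from fluorescence change between first and third reads (60 s).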
RE007 growth inh – less growth of the S. pombe RE007 Vpr strain; S. pombe RE007 Vpr strain, BacTiter-Glo ATP luminescence, 24 h; control for the full effect not named in the record; 0.21% of 360,000 active; Potency, µM (titrated, usually from 92.2 µM), inactives show at the top dose activity change, negative = less growth; AID 651644; active = well fitted falling curve with a large enough effect; inconclusive = small, poorly fitted or top-dose-only effect; inactive = no such curve, though single readings can be large or run the other way;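 further: on the % scale 0 is the no-effect control and ±100 the full control effect; nearly all actives have a fitted effect of over 50% in size; the assay follows cell death caused by Vpr and the record does not say whether a fall means rescue or toxicity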
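Fission yeast strain RE007, carrying one chromosomally integrated HIV-1 vpr copy, was seeded at OD 0.01 in PMG+AL medium with 23 nL pinned compound. After 24 h at 30 °C and 99% humidity, viability was read by BacTiter-Glo luminescence.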
Cruzain Triton – cruzain (T. cruzi) inhibition with detergent; P25779; purified cruzain, Z-FR-AMC fluorescence, 0.01% Triton; Potency, µM, without a hit: max response, negative = inhibition, most hits filed as inhibitors; 0.43% of 200,000 active; AID 1478; active means well fitted curve in the direction sought with a large enough effect; inconclusive means small, poorly fitted or top-dose-only effect, or another doubt; inactive means no such curve, though single readings can be large; an effect the other way counts as inactive or inconclusive;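 further: plate controls were neutral wells for no effect and buffer without enzyme for full effect; nearly all actives have a fitted effect of over 40% in size; top concentration of the series not given in the record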
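In this qHTS format, compounds are incubated with 1.5 nM cruzain for 15 min at room temperature before 2 uM Z-FR-AMC is added. Release of AMC is followed at 360/450 nm, and progress is taken as the 60 s fluorescence difference.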
NS1 function inh – blocks influenza NS1 protein function; Potency, µM (highest dose often 46.1 µM), for the others: at the highest dose activity, positive = more growth; 0.4% of 270,000 active; AID 2326; S. cerevisiae slowed by influenza A NS1, growth recovery by OD600; further: actives are rising curves; nearly all actives have a fitted effect of over 50% in size
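Growth recovery, yeast-based: influenza A NS1 expressed in S. cerevisiae causes slow growth, and suppressors are detected by OD600. The parent strain without NS1 is used as positive control.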
Marburg entry inh – inhibitors of Marburg virus binding or cell entry. Potency, µM (doses to about 37.8 µM), for the others: top-dose activity change, negative = inhibition, actives largely listed as inhibitors. Marburg virus pseudotyped entry inhibition, cell reporter; control for the full effect not named in the record; about a third of the inactives were read at about 46 µM. 1.8% of 300,000 active; active = well fitted inhibition curve with a large enough effect; inconclusive = small, poorly fitted or top-dose-only effect, or effect the other way; inactive = flat fitted curve, though single readings scatter; tested in HEK293 cells; about a fifth of its hits are not listed in these tables; further: on the % scale 0 is the no-effect control and ±100 the full control effect; luciferase read-out
* hit, by the source's call; ? = inconclusive; . = no result given; & = joins results of further samples; [ ] = another dose, or the depositor's remark. Unless noted, the call rests on the fitted dose curve; in most records, active means well fitted rising curve with a large enough effect; inconclusive means small, poorly fitted or top-dose-only effect; inactive means no such curve, though single readings can be large or run the other way. Potency means the concentration at half of the fitted maximal effect.

SMILES	2A StopGo	LASV entry inh	SARS PLP yeast	Cruzain noTriton	RE007 growth inh	Cruzain Triton	NS1 function inh	Marburg entry inh
CCN1C(C#N)=C(C#N)N=C(C)CC1(C)C	-6%	-14%[46.1 µM]	17%	.	4%	.	6%	0%[46.1 µM]
COc1ccc(CN2CCN(Cc3ccc4ccccc4c3)CC2)cc1OC	?	?	3%	.	2%	.	0%	?
COc1ccc(CCNC(=O)CNS(=O)(=O)c2ccc(Br)s2)cc1OC	.	3%	4%	4%	-1%	3.4%	4%	-2%
C=C(C)C1Cc2cc3ccc(=O)oc3cc2O1 (stereo not drawn)	25%	13%	5%	3%	-15%	-4.2%	-1%	2%
CCCC(=O)N1CCCC(C(=O)c2cccc(OC(C)C)c2)C1 (stereo not drawn)	5%	-28%[46.1 µM]	.	.	-12%	.	.	15%[46.1 µM]
Cc1ccc(S(=O)(=O)N2CCCCC2)cc1NC(=O)Cn1cnc2c1c(=O)n(C)c(=O)n2C	-6%	-3%[46.1 µM]	-1%	.	1%	.	.	?
O=C(Nc1ccc(Nc2ccccc2)cc1)c1ccc(Cl)cc1Cl	13%	-15%	.	.	-29%	.	.	-2%[46.1 µM]
O=C(CSc1nc(-c2ccccc2)c(-c2ccccc2)[nH]1)NCc1ccco1	-26%	-24%	-3%	-2%	12%	-6.4%	7%	?
CS(=O)(=O)N(Cc1ccccc1)c1ccc(C(=O)N2CCN(c3cccc(Cl)c3)CC2)cc1	?	?	2%	?	-3%	-0.7%	14%	13µM*
CCOC(=O)c1coc(CNC(=O)c2c(C)oc3c2CCCC3)c1	?	-6%	-1%	-2%	13%	0.3%	-19%	?
O=C(c1ccccc1Cl)N1CCN(c2ncccn2)CC1	1%	-5%	.	.	19%	.	.	0%[46.1 µM]
Brc1ccc(NCc2cccc3ccccc23)nc1	-13%	-7%	7%	8%	-5%[3.69 µM]	2.3%	-78%	?
Cc1ccc(-c2onc3ccc(C4(C)OCCO4)cc23)cc1	0%	?	?	8%	-9%	-8.5%	1%	-1%[46.1 µM]
COc1cccc(-n2nnc3c(=O)n(CC(=O)Nc4ccccc4C)cnc32)c1	0%	.	0%	.	9%	.	6%	.
Cc1[nH]c2ccccc2c1-c1nc2ccccc2[nH]1	36%[activator]	?	3%	-14%	5%	-2.6%	-10%	23%
CCCCC(c1nnnn1CCOC)N1CCN(C)CC1 (stereo not drawn)	7%	-3%	-18%	6%	0%	1.6%	10%	10%
COC(=O)c1ccc(CSc2nc3c([nH]c4ccccc43)c(=O)n2-c2ccc(F)cc2)o1	-15%	?	.	-1%	.	-3.4%	.	.
C/C(=N/Nc1ncc(Br)cn1)c1ccc(Br)cc1	40%[activator]	-1%	2%	.	2%	.	-8%	5%
C=CCn1cnc2sc(C(=O)Nc3ccccc3OC)c(C)c2c1=O	7%	.	-2%	.	-13%	.	-10%	.
CCC1C(=O)N=C(SCC(=O)Nc2cccc3ccccc23)NC1=O (stereo not drawn)	-10%	-3%	5%	-24%	-2%	-5.3%	10%	-6%
COc1ccc2c(c1)c(CC(=O)Nc1ccccc1OC)c(C)n2C(=O)c1ccc(Cl)cc1	-18%	-15%	11%	16µM*	-6%	-6.4%	23%	?
CCOC(=O)c1ccccc1NC(=O)N1CCc2c(sc(C)c2CC)C1c1ccccc1 (stereo not drawn)	-18%	23%[46.1 µM]	.	9%	.	2.2%	.	.
O=[N+]([O-])c1ccc(N2CCN(C(=S)Nc3ccccc3)CC2)cc1	0%	0%	2%	.	15%	.	.	-2%[46.1 µM]
Cc1c(C#N)c(N)nc2c3c(sc12)NC(=O)CC3c1ccc(F)cc1 (stereo not drawn)	-15%	15%	-10%	-1%	7%	-6.2%	0%	?
CC(=O)c1ccc(NC(=O)Cn2nc(C)cc2C)cc1	-3%	2%	1%	-7%	-12%	4.3%	1%	29%
CCOC(=O)Cn1c(-c2ccccc2)nc2ccccc2c1=O	-6%	28%	-25%	7%	-10%	-2.9%	-56%	6%
COc1ccc2cc(C(=O)C3CCCN(C(=O)CCc4ccccn4)C3)ccc2c1 (stereo not drawn)	-6%	21%	-1%	.	-20%	.	-35%	8%[46.1 µM]
CC(=O)Nc1ccc(SCc2csc(C)n2)cc1	14%	8%	-8%	.	6%	.	15%	1%[46.1 µM]
CC(C)Nc1nnc(Sc2ccc(Cl)cc2[N+](=O)[O-])s1	-20%	-2%	-16%	4%	-10%	-8.8%	2%	10%
Cc1ccc(-n2c(O)c(/C=N/n3cnnc3)c3ccccc3c2=O)cc1	-1%	-24%	-14%&-9%	7%&4%	7%&13%	-2.0%&-8.8%	21%&9%	3%&-4%
O=C(NCc1ccc(Cl)cc1)c1ccc2c(c1)NC(=O)C(CS(=O)(=O)Cc1ccc(F)cc1Cl)N2 (stereo not drawn)	-5%	-14%[46.1 µM]	.	-19%	.	-5.3%	.	.
O=C(NCCCN1CCOCC1)c1cc2c([nH]c3ccccc32)c(-c2cccc(Br)c2)n1	?	.	-8%	.	-4%	.	-1%	.
CC(=O)C1=C(O)C(=O)N(c2ccc(Br)cn2)C1c1ccc(Br)cc1 (stereo not drawn)	31%[activator]	.	-1%	.	-19%	.	5%	.
CCCCCn1c(N2CCCC2)nc2c1c(=O)n(C)c(=O)n2C	-8%	?	3%	.	15%	.	-18%	?
C1CCc2nnc(-c3nnc4n3CCCCC4)n2CC1	-13%	-3%	6%	-4%	-1%	2.0%	-15%	-5%
CCOC(=O)C1=C(N)n2c(s/c(=C\c3cccs3)c2=O)=C(C(=O)OCC)C1c1cccs1 (stereo not drawn)	7%	?	3%	2µM*	-3%	-4.2%	-12%	?
CSc1ccccc1OCc1cc(C(=O)N(C)CCn2nc(C)cc2C)no1	8%	.	-3%	.	1%	.	-17%	.
CC(=O)c1ccc(-n2c(CCC(=O)O)ccc2-c2ccc(Cl)cc2)cc1	-15%	.	-2%	.	-7%	.	3%	.
CCCCN(CC)S(=O)(=O)c1ccc2c(c1)n(C)c(=O)c(=O)n2C	-10%	.	-4%	.	9%	.	2%	.
COc1ccc(-c2cc(C(F)(F)F)nc(SCC(=O)Nc3ccc4c(c3)OCO4)n2)cc1OC	-23%	4%	0%	-5%	-4%	-3.6%	?	11%
O=C(O)C(C(=O)O)=C1C2CC3CC(C2)CC1C3	2%	14%	-9%	.	2%	.	7%	22%
Cc1ccc(C(=O)SC2=NCCS2)cc1	35µM*	4%	-85%	-7%	?	-2.0%	-18%	12%
COc1ccccc1CNC(=O)c1ccc2c(c1)N(Cc1c(F)cccc1Cl)C(=O)CS2	-23%	?	.	?	.	-4.2%	.	?
Cc1cc(C)nc(/N=C2\NC(=O)CC3C(=O)NCCN23)n1 (stereo not drawn)	-5%	13%	-8%	12%	17%	0.6%	0%	24%
S=c1[nH]nc(-c2cccs2)n1/N=C/c1cn(-c2ccccc2)nc1-c1ccccc1	-3%	-2%	2%	.	-6%	.	4%	?
CCCOc1ccc(C(=O)N(Cc2cccs2)C2CCS(=O)(=O)C2)cc1 (stereo not drawn)	-24%&-27%	?	1%	2%	20%	-1.5%	-7%	-8%&-8%
COc1ccc(/C=C2\SC(=S)N(NC(=O)c3csc4c3CCCC4)C2=O)cc1	-3%	14%	0%	7.9µM*	-5%	2.1%	0%	8%
Cc1nn(S(=O)(=O)c2ccc(C(C)C)cc2)c(C)c1S(=O)(=O)N1CCOCC1	9%	-5%[46.1 µM]	1%	.	11%	.	5%	21%[46.1 µM]
O=C(c1ccc(Cl)cc1)N1CCCCC(Cl)C1=O (stereo not drawn)	-26%	?	0%	.	3%	.	.	1%[46.1 µM]
COc1ccc(-c2nc(C(=O)O)cs2)cc1OC	16%	10%[46.1 µM]	0%	.	4%	.	.	16%[46.1 µM]
CCCC(=O)NC(Oc1ccccc1Cl)C(Cl)(Cl)Cl (stereo not drawn)	.	-9%	-1%	6%	-7%	-2.6%	-6%	1%
O=C(CSc1n[nH]c(=O)[nH]c1=O)Nc1ccccc1C(=O)c1ccccc1	-18%	4%	3%	.	2%	.	10%	8%[46.1 µM]
NC(=O)Nc1ccc(C(=O)OCC(=O)N(Cc2ccccc2)C2CCS(=O)(=O)C2)cc1 (stereo not drawn)	5%	-8%	1%	.	-24%	.	-5%	-8%[46.1 µM]
Cc1cc(C)c(NC(=O)CSc2nc3ncc(Cl)cc3[nH]2)c(C)c1	-18%	.	9%	.	11%	.	10%	.
CC1=C(C#N)C(c2ccc3ncccc3c2)C(C#N)=C(C)N1	.	1%	0%	1%	-11%	2.4%	-4%	-23%
COc1cc(C2C3CN(C)CC=C3C(C#N)=C(N)C2(C#N)C#N)ccc1OC(C)C (stereo not drawn)	?	5%	-2%	-7%	14%	-9.0%	6%	-9%
C/C(=N/N1CCN(c2ccccc2)CC1)c1cccc([N+](=O)[O-])c1	1%	0%[46.1 µM]	-3%	.	1%	.	.	?
COc1ccc(C)cc1NC(=O)NCCC1=CCCCC1	6%	-16%	-9%	-12%	-9%	-5.0%	-109%	0%
CCCCN(CCCC)CCNC(=O)CNC(=O)c1cccs1	13%	18%	16%	-5%	0%	-1.4%	?	-14%
CC1CN(c2ccc([N+](=O)[O-])c3cccnc23)CC(C)N1 (stereo not drawn)	0%	22%	-7%	-10%	5%	-6.2%	7%	-9%
COC(=O)c1ccccc1C(=O)N1CCOCCOCCOCC1	-1%	11%	17%	-5%	-6%	0.0%	4%	18%

Compound activity deposited in PubChem by National Center for Advancing Translational Sciences (NCATS).
